# Screening results deposited in PubChem by several laboratories.
# MEP2 TOR yeast – alters MEP2-GFP fluorescence in TOR pathway yeast screen; GFP response vs DMSO, % at 10 µM; 0.51% of 330,000 active; S. cerevisiae MEP2-GFP strain, flow cytometry GFP, 3 h; 100% = DMSO control level;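 active means GFP response versus DMSO above a set limit, roughly screen mean plus 3 SD, cut at about 180% in these data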;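 further: median GFP fluorescence of the barcode-gated MEP2-GFP cells per well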
# procasp7 counter – activates human procaspase-7, counter-screen for procaspase-3 activators. recombinant procaspase-7, Ac-DEVD-pNA absorbance 405 nm; D23A/D198A/D206A triple mutant, cannot self-cleave; scale: DMSO 0, 5 µM enzyme 100. activation, % at 8.5 µM. 0.093% of 330,000 active. AID 463210;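 active means percent activation above the screen-wide mean plus 3 SD, cut at about 25% in these data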
# Target sequence (P55210 whole entry D23A/D198A/D206A): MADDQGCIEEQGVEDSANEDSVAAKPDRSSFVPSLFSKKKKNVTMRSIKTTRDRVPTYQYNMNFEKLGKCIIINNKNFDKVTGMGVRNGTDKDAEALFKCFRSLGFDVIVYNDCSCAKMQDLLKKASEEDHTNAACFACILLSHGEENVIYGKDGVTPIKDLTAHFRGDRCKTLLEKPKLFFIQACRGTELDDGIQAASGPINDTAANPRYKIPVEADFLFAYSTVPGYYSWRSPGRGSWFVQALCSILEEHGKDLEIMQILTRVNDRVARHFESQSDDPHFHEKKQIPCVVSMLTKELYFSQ
#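 Detection: p-Nitroaniline absorbance at 405 nm, read at 0 and 120 min; system: Uncleavable procaspase-7 mutant enzyme; evaluation: % activation from two-timepoint absorbance difference, scaled to controls; times: 1 h enzyme–compound preincubation and 2 h substrate reaction, both 25 °C; buffer or medium: Zinc-free HEPES pH 7.4 with 300 mM NaCl, 0.01% Triton X-100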
# RPL19A TOR yeast – yeast TOR pathway RPL19A-GFP modulation; 0.3% of 330,000 active; S. cerevisiae RPL19A-GFP strain, flow cytometry, 3 h; active compounds read low; AID 2025; percent response vs DMSO, % at 10 µM;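 active means percent response vs DMSO below 50%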;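 further: median channel GFP fluorescence of the barcoded RPL19A-GFP strain; ratio of sample median GFP to plate DMSO average so 100% = DMSO; lower means less RPL19A-GFP as with rapamycin TOR inhibition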
# ZTA DNA inh – blocks Epstein-Barr virus ZTA, an EBNA-1 counter-screen; 0.15% of 320,000 active; ZTA-DNA binding, fluorescence polarization; P03206; inhibition, % at 11 µM; in the data active means inhibition above about 33%
# Target sequence (P03206 whole entry, looked up): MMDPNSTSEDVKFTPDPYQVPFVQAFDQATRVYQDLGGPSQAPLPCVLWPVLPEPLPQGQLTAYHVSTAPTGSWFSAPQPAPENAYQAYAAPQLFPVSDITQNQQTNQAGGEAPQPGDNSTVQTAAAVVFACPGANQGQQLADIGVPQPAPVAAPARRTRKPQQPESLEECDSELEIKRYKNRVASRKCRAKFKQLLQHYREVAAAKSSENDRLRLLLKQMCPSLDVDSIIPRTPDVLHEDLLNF
# AHR act – activates the human aryl hydrocarbon receptor; P35869; AHR-responsive luciferase reporter cells, luminescence; activation, % at 5 µM; 2.5% of 320,000 active; in the data active means activation above about 47%;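 further: 0% = vehicle wells and 100% = reference agonist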
# LAP4-GFP MLPCN – yeast TOR pathway LAP4-GFP modulation; AID 2023; GFP response vs DMSO, % at 10 µM; S. cerevisiae LAP4-GFP multiplex, flow cytometry GFP, 3 h; median GFP as percent of DMSO wells; 0.34% of 320,000 active;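 active means GFP response vs DMSO above a set limit, about the screen mean plus 3 SD, cut at about 150% in these data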
# EBNA-1 inh – blocks EBNA-1 binding to DNA. EBNA-1 DNA binding, fluorescence polarization. inhibition, % at 14.8 µM. 0.34% of 300,000 active. AID 1950; in the data active means inhibition above about 28%
# An asterisk follows results filed as active; nt = no result given; [ ] = another dose, or the depositor's remark. An excerpt, so the mix of outcomes need not match the whole.
1) COc1ccc(-c2nc(-c3cccc(C)c3)no2)cc1OC
2) O=C(COC(=O)c1ccc(O)cc1O)c1ccc2c(c1)OCO2
3) O=C(Nc1ccccn1)c1ccc(-c2ccccc2)cc1
4) CCOC(=O)c1ccc(NC(=O)c2ccc3c(c2)OCO3)cc1
5) CC(C)(C)c1csc(NC(=O)C2=COCCO2)n1
compound no.	1	2	3	4	5
EBNA-1 inh	-5.1	5.8	8.2	-4.7	0.8
RPL19A TOR yeast	104.0	96.3	101.5	92.5	96.3
AHR act	-6.9	0.1	-2.9	6.7	15.3
procasp7 counter	-4.8	-8.9	0.4	0.7	2.2
MEP2 TOR yeast	112.7	92.2	103.3	77.3	101.5
ZTA DNA inh	0.3	4.4	-3.8	-5.4	8.6
LAP4-GFP MLPCN	121.8	100.8	100.6	103.4	109.3

6) O=[N+]([O-])c1cccc(-c2nc(-c3ccccc3)no2)c1
7) Cc1cc(-c2cccc([N+](=O)[O-])c2)nc2ccc3ccccc3c12
8) COc1ccc(NC(=O)c2ccc(C)o2)c([N+](=O)[O-])c1
9) Brc1ccsc1-c1csc(-c2ccncc2)n1
10) COc1ccc(-c2csc(-c3cccs3)n2)c(OC)c1
compound no.	6	7	8	9	10
EBNA-1 inh	6.2	2.3	7.5	8.1	3.0
RPL19A TOR yeast	99.5	99.9	108.8	100.2	94.6
AHR act	57.6*	12.2	1.9	7.9	80.4*
procasp7 counter	8.6	-1.2	0.2	4.4	7.9
MEP2 TOR yeast	103.4	104.5	104.5	99.7	133.8
ZTA DNA inh	-22.0	-6.8	12.4	7.2	-5.2
LAP4-GFP MLPCN	113.7	106.9	92.8	85.7	122.1

11) CC(C)c1ccc(Nc2ncccc2C#N)cc1
12) N#Cc1c(N)n(-c2ccccc2N)c2nc3ccccc3nc12
13) Cc1cc(C)c2c(c1)cc(C)c1nnc(SCC(=O)Nc3cc(C)on3)n12
14) COc1cc(OC)cc(C(=O)Nc2ccc(NC(=O)c3ccco3)c(Cl)c2)c1
15) O=C(OCc1ccc(F)cc1Cl)c1ccccn1
compound no.	11	12	13	14	15
EBNA-1 inh	-0.9	-8.9	5.5	0.7	-5.0
RPL19A TOR yeast	95.0	96.0	99.2	98.0	97.4
AHR act	56.8*	16.8	1.3	9.5	2.8
procasp7 counter	7.3	-6.2	-2.3	6.4	-4.7
MEP2 TOR yeast	99.1	103.1	102.9	102.1	102.5
ZTA DNA inh	12.6	-8.7	-4.4	-5.5	4.7
LAP4-GFP MLPCN	99.1	111.8	91.9	112.6	102.3

# Arranged by molecular weight (lowest first): 3 of the compounds above.
11) CC(C)c1ccc(Nc2ncccc2C#N)cc1
12) N#Cc1c(N)n(-c2ccccc2N)c2nc3ccccc3nc12
13) Cc1cc(C)c2c(c1)cc(C)c1nnc(SCC(=O)Nc3cc(C)on3)n12
compound no.	11	12	13
EBNA-1 inh	-0.9	-8.9	5.5
RPL19A TOR yeast	95.0	96.0	99.2
AHR act	56.8*	16.8	1.3
procasp7 counter	7.3	-6.2	-2.3
MEP2 TOR yeast	99.1	103.1	102.9
ZTA DNA inh	12.6	-8.7	-4.4
LAP4-GFP MLPCN	99.1	111.8	91.9

# Continued:
16) COC(=O)c1sc(NC(=S)NC(=O)c2ccccc2F)nc1C
17) COc1cccc(COC(=O)Nc2ccccc2F)c1
18) COc1ccc(-c2nc(-c3ccncc3)no2)c(OC)c1
19) COc1ccc(NC(=O)NC(=O)c2ccccc2)cc1
20) COc1ccc(C(=O)Nc2ccc(C(=O)N3CCCCC3)cc2)cc1OC
compound no.	16	17	18	19	20
EBNA-1 inh	-1.1	-2.2	8.2	7.7	7.6
RPL19A TOR yeast	86.2	94.8	97.6	103.7	50.3[may fluoresce violet]
AHR act	4.5	0.7	22.3	-1.6	2.6
procasp7 counter	-2.2	-3.3	-2.9	10.4	-5.8
MEP2 TOR yeast	86.8	100.4	99.3	110.5	354.7*[may fluoresce violet]
ZTA DNA inh	-6.1	-2.5	-11.3	4.5	6.9
LAP4-GFP MLPCN	78.9	88.8	95.8	100.3	83.0[may fluoresce violet]

21) O=C(/C=C/c1cccs1)Nc1ccc(Br)cn1
22) O=C(Nc1nc2ccccc2s1)c1ccccc1
23) COc1ccc(-c2cc(C(=O)OCC(=O)N3CCCCC3)c3ccccc3n2)cc1OC
24) COc1ccc(NC(=O)COC(=O)C23CC4CC(CC(O)(C4)C2)C3)cc1Cl
25) CC(=O)c1ccccc1NC(=O)COC(=O)c1c(C)nn(-c2ccccc2)c1C
compound no.	21	22	23	24	25
EBNA-1 inh	-5.3	-2.6	nt	nt	nt
RPL19A TOR yeast	106.2	100.8	100.2	93.7	91.4
AHR act	-4.5	27.4	13.6	0.3	0.1
procasp7 counter	12.7	0.2	6.8	8.9	3.2
MEP2 TOR yeast	101.3	98.8	101.9	90.7	94.9
ZTA DNA inh	22.1	-13.3	nt	nt	9.0
LAP4-GFP MLPCN	94.6	92.9	108.3	89.6	94.9

26) O=C(Nc1ccc([N+](=O)[O-])cc1)c1cccc(S(=O)(=O)Nc2cccnc2)c1
27) CC(C)COc1ccc(C(=O)Nc2ccccc2[N+](=O)[O-])cc1
28) COC(=O)c1sccc1NC(=O)COc1ccc(F)cc1Cl
29) CCCOc1ccc(-c2cc3onc(-c4ccccc4)c3c(=O)n2C)cc1
30) CCOc1ccc(OCc2ccc(C(=O)OCc3ccccn3)o2)cc1
compound no.	26	27	28	29	30
EBNA-1 inh	-3.5	8.2	12.1	nt	5.5
RPL19A TOR yeast	104.9	101.2	85.9	92.0	96.6
AHR act	1.7	-1.9	4.3	-1.7	-2.9
procasp7 counter	-7.4	0.1	3.0	3.0	5.0
MEP2 TOR yeast	103.2	98.5	87.9	91.6	94.4
ZTA DNA inh	1.7	-7.8	-12.4	nt	6.7
LAP4-GFP MLPCN	95.8	98.5	88.4	90.9	118.6

# Ordered by value in LAP4-GFP MLPCN (falling): some entries from above
item	Structure	EBNA-1 inh	RPL19A TOR yeast	AHR act	MEP2 TOR yeast	LAP4-GFP MLPCN
30	CCOc1ccc(OCc2ccc(C(=O)OCc3ccccn3)o2)cc1	5.5	96.6	-2.9	94.4	118.6
27	CC(C)COc1ccc(C(=O)Nc2ccccc2[N+](=O)[O-])cc1	8.2	101.2	-1.9	98.5	98.5
29	CCCOc1ccc(-c2cc3onc(-c4ccccc4)c3c(=O)n2C)cc1	nt	92.0	-1.7	91.6	90.9

# More records.
31) O=C(NC(=S)Nc1ccccn1)c1ccc(-c2ccccc2)cc1
32) COc1ccc(-c2noc(-c3cccc(OC)c3OC)n2)cc1OC
33) COC(=O)c1ccc(NC(=O)Nc2ccccc2F)cc1
34) O=C1COc2ccc(C(=O)COC(=O)c3ccccc3Cl)cc2N1
35) CC(=O)Nc1ccc(NC(=O)CSc2ncc(C(=O)Nc3ccccc3)c(=O)n2C)cc1
36) O=C(Nc1ccc2nccnc2c1)Nc1ccccc1Cl
37) CC(=O)Nc1ccc(S(=O)(=O)Nc2nc3ccccc3nc2Nc2ccc(C(=O)O)c(O)c2)cc1
compound no.	31	32	33	34	35	36	37
EBNA-1 inh	5.9	1.0	-7.6	nt	0.4	-9.3	nt
RPL19A TOR yeast	98.4	104.7	99.5	96.6	88.8	105.1	93.5
AHR act	2.6	-8.3	3.9	-1.0	20.8	-5.0	2.7
procasp7 counter	-2.5	-4.2	-8.1	4.5	-5.8	-22.9	3.6
MEP2 TOR yeast	102.3	103.2	107.7	106.4	99.1	96.2	97.2
ZTA DNA inh	16.1	5.8	-13.9	nt	-10.4	-14.8	nt
LAP4-GFP MLPCN	116.3	97.7	109.9	105.0	168.1*	92.7	100.9

# Look-ups from the results shown.
# In procasp7 counter, compound 17 is listed with -3.3
# In EBNA-1 inh, compound 1 is listed with -5.1
# In EBNA-1 inh, compound 20 is listed with 7.6
# In RPL19A TOR yeast, compound 21 is listed with 106.2
# In procasp7 counter, compound 30 is listed with 5.0

# Single records, as listed above. Order of values: EBNA-1 inh	RPL19A TOR yeast	AHR act	procasp7 counter	MEP2 TOR yeast	ZTA DNA inh	LAP4-GFP MLPCN
# Profile of CC(=O)Nc1ccc(NC(=O)CSc2ncc(C(=O)Nc3ccccc3)c(=O)n2C)cc1 = 0.4	88.8	20.8	-5.8	99.1	-10.4	168.1*
# Profile of COc1ccc(-c2noc(-c3cccc(OC)c3OC)n2)cc1OC = 1.0	104.7	-8.3	-4.2	103.2	5.8	97.7
